# Compound activity as filed in PubChem.
# HSV augment: enhancers of HSV replication in host cells, fold increase, host cell viability; maximum fold increase; HSV replication augmentation in cells; 220,000 compounds, 0.005% hits;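 active = peak rise of 1.5-fold or more in the series; tested in PC3 cells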;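 note: first round at 10 µM; read as green reporter fluorescence; hits show the peak of a series up to 25 µM; 1 = signal of infected wells without compound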
# INS promoter inh: inhibitors of insulin promoter-driven GFP, primary screen, imaging, TRM-6 cells (human fetal islet line), eGFP reporter, cell count; reporter expression induced with tamoxifen; inhibition, % at 2 µM; 130,000 compounds, 0.9% hits; AID 1273, 2008;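 active = inhibition above the mean plus 3 SD, with well images judged a real hit on visual review, cut at about 60% in these data, passing the limit was not always enough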
# PKD1 inh: inhibitors of human PKD1 kinase, biochemical, fluorescence polarization; Serine/threonine-protein kinase D1 (Homo sapiens), Q15139; PKD1 kinase fluorescence polarization assay; inhibition, %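 (about 10 µM by stock and volumes)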; 200,000 compounds, 0.056% hits;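 active = inhibition of 50% or more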;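 note: controls were vehicle for no effect and a reference inhibitor for full effect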
# Target sequence (Q15139 whole entry, looked up): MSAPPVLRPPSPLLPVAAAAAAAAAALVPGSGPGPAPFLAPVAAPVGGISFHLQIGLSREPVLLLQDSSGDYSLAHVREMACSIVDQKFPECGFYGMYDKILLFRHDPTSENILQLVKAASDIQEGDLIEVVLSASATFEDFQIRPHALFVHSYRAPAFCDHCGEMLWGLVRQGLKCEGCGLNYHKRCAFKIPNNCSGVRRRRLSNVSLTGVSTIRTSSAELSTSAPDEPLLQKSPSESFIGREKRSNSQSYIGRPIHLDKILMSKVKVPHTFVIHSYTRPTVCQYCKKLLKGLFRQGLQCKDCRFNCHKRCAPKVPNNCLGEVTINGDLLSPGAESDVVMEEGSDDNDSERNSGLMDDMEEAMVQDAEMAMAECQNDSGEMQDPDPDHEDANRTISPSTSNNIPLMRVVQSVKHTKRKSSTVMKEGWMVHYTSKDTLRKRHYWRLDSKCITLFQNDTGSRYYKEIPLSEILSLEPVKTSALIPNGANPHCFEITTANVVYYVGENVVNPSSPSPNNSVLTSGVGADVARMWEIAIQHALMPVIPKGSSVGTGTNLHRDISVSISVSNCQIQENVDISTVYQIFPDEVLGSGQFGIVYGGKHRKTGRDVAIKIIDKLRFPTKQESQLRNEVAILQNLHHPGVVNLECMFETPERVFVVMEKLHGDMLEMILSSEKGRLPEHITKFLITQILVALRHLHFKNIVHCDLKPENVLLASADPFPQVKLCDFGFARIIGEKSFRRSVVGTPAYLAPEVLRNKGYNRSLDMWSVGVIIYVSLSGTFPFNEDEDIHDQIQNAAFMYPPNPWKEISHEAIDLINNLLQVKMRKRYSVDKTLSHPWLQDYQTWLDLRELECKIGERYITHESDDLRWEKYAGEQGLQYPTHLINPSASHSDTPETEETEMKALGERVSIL
# RGS16-Gao HTS: modulators of RGS16 binding to Galphao, primary screen, biochemical, human proteins, multiplexed bead flow cytometry; Regulator of G-protein signaling 16 (Homo sapiens) + Guanine nucleotide-binding protein …; bead-based flow cytometry RGS16-Galphao binding, fluorescence; actives lie on both sides; binding response (% of control), % at 10 µM; 220,000 compounds, 0.38% hits;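 active = below 25% or above 175%, edge rows of some plates excepted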;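 note: Galphao activated by GDP with aluminum fluoride before binding; 100% = wells without compound and 0% = beads without RGS; some results beyond the cut were filed as inactive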
# GALR2 ag: GALR2 receptor agonists, primary screen, cell-based; Galanin receptor type 2 (Homo sapiens), O43603; GALR2-expressing cells, agonist activation read-out; activation, %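 (tested at 5 µM)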; 140,000 compounds, 0.48% hits; AID 803, 2007;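 active = above mean plus 3 SD of all compounds, about 5% in these data, not always enough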;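 note: 0% = vehicle buffer wells and 100% = reference agonist at full effect; tested in CHO reporter cells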
# INS promoter inh cell count: also measured in INS promoter inh; calls as there; normalized cell count, %; measured here: cell count, toxicity; reference of the scale not given here;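 cells exposed to compound for 48 h; stained nuclei by imaging scaled within each plate; lower means fewer cells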
# HSV augment primary fold: also measured in HSV augment; calls as there; fold increase; compound at 10 µM; measured here: primary screen fold increase 10 uM; tested in PC3 cells;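 GFP signal in the first replicate; 1 = infected wells without compound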
# * marks the source's active call; other numbers are inactive results; i = inactive; nt = no result given.
SMILES,HSV augment,HSV augment primary fold,INS promoter inh,INS promoter inh cell count,PKD1 inh,RGS16-Gao HTS,GALR2 ag
O=C(COc1ccc(S(=O)(=O)NC2CCCC2)cc1)N1CCCCCC1,i,1.1,-369,83,-3,99,-1.7
CC(=O)c1cnc(-c2cccc(Cl)c2)s1,i,0.98,nt,nt,3,100,nt
Cc1ccc(-c2noc(CN(C(=O)Cc3ccccc3)C(C)C)n2)cc1,i,1.1,-25,109,3,100,1.9
O=C(c1ccccn1)c1conc1C(=O)c1ccc(Br)cc1,i,0.91,60,87,-1,100,-1.9
O=S(=O)(NC(=S)NC1CCCCC1)c1ccccc1,i,1,-29,136,-8,103,nt
COc1ccc(CNc2nc(-c3ccccc3)nn2C(=O)c2ccc([N+](=O)[O-])cc2)cc1,i,1.2,nt,nt,-5,101,-0.4
COc1ccccc1NC(=O)c1ccc2nc(-c3ccccc3)c(-c3ccccc3)nc2c1,i,0.92,6,76,-7,99,-1.5
CCCc1[nH]nc2c1C(c1cccc(OC(=O)c3ccco3)c1)C(C#N)=C(N)O2 (configuration not stated),i,0.84,-269,72,0,98,-3.2
CCCNC(=O)c1ccc2c(=O)c(O)c(-c3ccc(Cl)c([N+](=O)[O-])c3)[nH]c2c1,i,0.64,nt,nt,nt,84,nt
CCOc1ccc(OCC)c(NC(=O)CN(c2ccc(C)cc2)S(=O)(=O)c2c(C)noc2C)c1,i,1,nt,nt,-1,102,-0.6
CCn1ccnc1CN1CCN(CCC(C)C)C(CCO)C1 (configuration not stated),i,1.1,nt,nt,6,118,nt
O=c1[nH]c(-c2ccccc2F)nc2c1sc(=S)n2Cc1ccccc1,i,1.1,nt,nt,-4,98,0.9
CCN(c1ccc(NC(=O)c2ccc(Cl)nc2)cc1)C(C)C,i,0.83,nt,nt,4,103,nt
O=C(c1cc(S(=O)(=O)N2CCCCC2)c(Cl)cc1N1CCOCC1)N1CCOCC1,i,0.83,nt,nt,-9,97,0.4
Cn1cccc1/C=C1\SC(=S)N(CC(=O)O)C1=O,i,1.1,56,71,-4,94,-1.3
O=C(NCc1ccccc1)c1onc(CSc2ccc(F)cc2)c1C(=O)NCCCN1CCOCC1,i,0.99,nt,nt,0,103,-0.6
Cc1cccc(C)c1NC(=O)Cn1nnc(-c2ccc(N3CCOCC3)cc2)n1,i,1.2,4,100,0,103,-1.1
CCCOc1ccc(NC(=O)CC2C(=O)N(CC)C(=S)N2CCCN2CCN(Cc3ccccc3)CC2)cc1 (configuration not stated),i,0.75,-67,113,5,107,nt
O=C(Cc1cccs1)Nc1cc(SCCO)cc([N+](=O)[O-])c1,i,0.89,-14,59,9,15,-0.2
O=C1c2ccccc2NC(c2ccccc2)N1NS(=O)(=O)c1ccccc1 (configuration not stated),i,1.1,nt,nt,-5,97,nt
c1ccc(CCC2CCCCN2Cc2nc(-c3ccc4c(c3)OCO4)no2)nc1 (configuration not stated),i,1.1,nt,nt,-7,94,nt
Cn1c(=O)oc2ccc(C(=O)CSc3nnnn3-c3ccccc3)cc21,i,1.1,nt,nt,2,103,0.6
Cc1noc(NC(=O)c2ccccc2)c1C#N,i,0.93,43,89,-15,98,-0.8
CCOC(=O)C(NC(=O)c1ccccc1)(N1CCCC1=O)C(F)(F)F (configuration not stated),i,1.1,7,76,-6,101,-1.5
CCCCNC(=O)COC(=O)c1cc(F)c(F)cc1Cl,i,1,6,259,-7,97,-3.8
CCN(CC(=O)NC(C)C)C(=O)[C@H](C)NC(=O)c1ccc(Br)cc1,i,0.99,-39,51,-6,104,nt
O=C(CCC(=O)N1CCN(C2CCCCC2)CC1)Nc1nnc(C(F)(F)F)s1,i,0.94,0,142,-1,122,-0.9
O=C(Nc1ccccc1)Nc1cc([N+](=O)[O-])ccc1F,i,0.95,14,115,-4,109,-0.3
Cc1ccc(Oc2nc3ccccn3c(=O)c2/C=C(\C#N)C(=O)Nc2c(C)n(C)n(-c3ccccc3)c2=O)cc1,i,1,nt,nt,-4,107,0.0
COc1ccc(C2=NOC3(CC(=O)N(c4ccc5ccccc5c4)C3=O)C2)c(OC)c1 (configuration not stated),i,0.85,26,69,11,36,-0.6
c1ccc2c(CN3CCOCC3)csc2c1,i,0.96,nt,nt,7,107,-0.3
CON=C1CCN(c2ncc(C(F)(F)F)cc2Cl)CC1,i,0.85,nt,nt,0,97,-0.5
COC(=O)C/C=N/N=C1/NC(=O)/C(=C/C(=O)O)S1,i,1.4,nt,nt,nt,96,nt
CC1(C)CC(=O)C2=C(C1)N(N1CCOCC1)C(N)=C(C#N)C2c1cccs1 (configuration not stated),i,0.92,38,133,-1,99,-1.1
N#Cc1ccc(NC(=O)CN2C(=O)NC(Cc3ccccc3)C2=O)cc1 (configuration not stated),i,1,nt,nt,6,100,-0.3
CCCNCc1cc(OC)c(OCC(=O)Nc2ccccc2)cc1Br,i,0.9,nt,nt,3,97,nt
O=C(c1ccc(NS(=O)(=O)c2ccccc2)cc1)N1CCN(Cc2ccc3c(c2)OCO3)CC1,i,0.97,27,121,-2,106,-0.7
COc1ccc(NC(=O)c2cn(-c3ccccc3)nc2-c2ccncc2)cc1,i,0.89,0,142,0,103,nt
CCOC(=O)c1sc(NC(=O)CSc2ncn(-c3ccccc3)n2)nc1C,i,0.86,5,118,6,101,-3.0
O=C(N/N=C/c1cc([N+](=O)[O-])ccc1Cl)c1ccc2nc[nH]c2c1,i,0.97,14,132,0,105,-0.2
CSc1ccccc1NC(=O)c1ccc([N+](=O)[O-])cc1,i,0.8,nt,nt,-4,92,nt
CC1=CCC2C(=O)N(c3nc(C)cc(C)n3)C(=O)C2C1 (configuration not stated),i,1.1,-20,79,-13,111,5.8
COc1ccc(C2/C=C\CN(Cc3ccncc3)CC(=O)N2Cc2ccc(F)cc2)cc1 (configuration not stated),i,0.93,nt,nt,nt,100,nt
C/C(=N\N=c1/sc2ccccc2n1C)c1ccccn1,i,0.97,nt,nt,4,94,nt
CCOc1ccc(N2C(=O)c3cccnc3C2=O)cc1,i,0.96,-29,140,-3,99,-1.1
Cc1nn(-c2ccc(F)cc2)c(C)c1CN1CCN(Cc2ccccc2)C(CCO)C1 (configuration not stated),i,1,nt,nt,-8,102,nt
CC(=O)Nc1ccc(C2=NN(C)C(=NCc3ccccc3)SC2)cc1,i,0.99,25,215,-1,104,nt
CN1CCN(c2oc(-c3cccs3)nc2S(=O)(=O)c2ccccc2)CC1,i,0.89,-18,92,-8,178,-0.8
COc1cccc(C(=O)N2CCN(C3CCC(c4ccccc4)CC3)CC2)c1 (configuration not stated),i,1,nt,nt,-1,104,-1.8
O=C(CN1C(=O)S/C(=C/c2ccc(N3CCOCC3)cc2)C1=O)N1CCOCC1,i,0.92,6,97,-13,48,1.2

# The list continues.
SMILES,HSV augment,HSV augment primary fold,INS promoter inh,INS promoter inh cell count,PKD1 inh,RGS16-Gao HTS,GALR2 ag
Cc1ccc(-c2nn(C)c(=O)c3ccccc23)cc1CN1CCOCC1,i,0.86,nt,nt,4,101,-3.5
Cc1cc(-c2nnc(CCC(=O)NCc3ccc(F)c(F)c3)o2)no1,i,1,-7,104,1,57,nt
Cc1nn(C(C)(C)C)c(OC(=O)c2ccc3c(c2)OCO3)c1Sc1ccccc1,i,1,-36,73,-2,103,-3.6
CCCSc1nnc(CSc2nc3ccccc3s2)n1-c1ccccc1,i,0.85,-14,300,-5,99,-2.3
Cc1cc(C(=O)COC(=O)c2cccnc2Cl)c(C)n1CC1CCCO1 (configuration not stated),i,1,nt,nt,-7,104,nt
CCOC(=O)Cn1cc(C(=O)c2ccco2)c2ccccc21,i,1.1,nt,nt,-2,99,-2.7
Cc1ccc2nc(NC(=O)CCNS(=O)(=O)c3cccs3)sc2c1,i,1.1,nt,nt,-6,93,-0.2
COc1ccc(N/C=C/C(=C(C#N)C#N)N(C)C)cc1,i,0.95,nt,nt,-2,100,nt
O=C(Nn1c(O)c(C=C2N=c3ccccc3=N2)sc1=S)c1ccccc1Cl,i,1.1,13,99,0,101,-3.2
O=C(NCc1cccc(C(F)(F)F)c1)c1cc(Cl)ccc1Cl,i,0.95,nt,nt,-3,104,-0.1
COc1ccccc1OCCC(=O)OCC(=O)Nc1ccc(Br)cc1,i,1,-45,75,-2,104,-0.8
CCOc1ccc(NC(=O)c2nccnc2CO)cc1,i,0.95,50,45,-3,101,0.1

# Molecules above that contain fluorine:
SMILES,HSV augment,HSV augment primary fold,INS promoter inh,INS promoter inh cell count,PKD1 inh,RGS16-Gao HTS,GALR2 ag
O=c1[nH]c(-c2ccccc2F)nc2c1sc(=S)n2Cc1ccccc1,i,1.1,nt,nt,-4,98,0.9
O=C(NCc1ccccc1)c1onc(CSc2ccc(F)cc2)c1C(=O)NCCCN1CCOCC1,i,0.99,nt,nt,0,103,-0.6
CCOC(=O)C(NC(=O)c1ccccc1)(N1CCCC1=O)C(F)(F)F (configuration not stated),i,1.1,7,76,-6,101,-1.5
CCCCNC(=O)COC(=O)c1cc(F)c(F)cc1Cl,i,1,6,259,-7,97,-3.8
O=C(CCC(=O)N1CCN(C2CCCCC2)CC1)Nc1nnc(C(F)(F)F)s1,i,0.94,0,142,-1,122,-0.9
O=C(Nc1ccccc1)Nc1cc([N+](=O)[O-])ccc1F,i,0.95,14,115,-4,109,-0.3
CON=C1CCN(c2ncc(C(F)(F)F)cc2Cl)CC1,i,0.85,nt,nt,0,97,-0.5
COc1ccc(C2/C=C\CN(Cc3ccncc3)CC(=O)N2Cc2ccc(F)cc2)cc1 (configuration not stated),i,0.93,nt,nt,nt,100,nt
Cc1nn(-c2ccc(F)cc2)c(C)c1CN1CCN(Cc2ccccc2)C(CCO)C1 (configuration not stated),i,1,nt,nt,-8,102,nt
Cc1cc(-c2nnc(CCC(=O)NCc3ccc(F)c(F)c3)o2)no1,i,1,-7,104,1,57,nt
O=C(NCc1cccc(C(F)(F)F)c1)c1cc(Cl)ccc1Cl,i,0.95,nt,nt,-3,104,-0.1
